Luciferase inh = inhibitors of firefly luciferase; P08659; purified firefly luciferase, luminescence, 8 min; Potency, µM (series often up to 57.1 µM), for the others: at the top dose activity change, negative = inhibition, hits mostly inhibitors; 72,000 compounds, 2.2% hits; AID 411; note: potency is the fitted concentration of half-maximal effect; % is set by controls: 0 for no effect and ±100 for the full control effect; nearly all actives have a fitted effect of over 40% in size
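Here, luciferase activity is measured as luminescence following an 8 min room-temperature reaction at 10 uM ATP, pH 7.2. Every library sample is titrated.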
BRCT inh green = BRCA1 BRCT-phosphoprotein interaction inhibition | BRCA1 BRCT-phosphopeptide binding, green fluorescence polarization | Potency, µM (series often up to 76.9 µM), for the others: at the top dose activity change, negative = inhibition, usual class: inhibitors | 75,000 compounds, 0.05% hits | AID 875;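 note: potency is the fitted concentration of half-maximal effect; plate controls were peptide without protein for full effect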
Target sequence (P38398 whole entry, looked up): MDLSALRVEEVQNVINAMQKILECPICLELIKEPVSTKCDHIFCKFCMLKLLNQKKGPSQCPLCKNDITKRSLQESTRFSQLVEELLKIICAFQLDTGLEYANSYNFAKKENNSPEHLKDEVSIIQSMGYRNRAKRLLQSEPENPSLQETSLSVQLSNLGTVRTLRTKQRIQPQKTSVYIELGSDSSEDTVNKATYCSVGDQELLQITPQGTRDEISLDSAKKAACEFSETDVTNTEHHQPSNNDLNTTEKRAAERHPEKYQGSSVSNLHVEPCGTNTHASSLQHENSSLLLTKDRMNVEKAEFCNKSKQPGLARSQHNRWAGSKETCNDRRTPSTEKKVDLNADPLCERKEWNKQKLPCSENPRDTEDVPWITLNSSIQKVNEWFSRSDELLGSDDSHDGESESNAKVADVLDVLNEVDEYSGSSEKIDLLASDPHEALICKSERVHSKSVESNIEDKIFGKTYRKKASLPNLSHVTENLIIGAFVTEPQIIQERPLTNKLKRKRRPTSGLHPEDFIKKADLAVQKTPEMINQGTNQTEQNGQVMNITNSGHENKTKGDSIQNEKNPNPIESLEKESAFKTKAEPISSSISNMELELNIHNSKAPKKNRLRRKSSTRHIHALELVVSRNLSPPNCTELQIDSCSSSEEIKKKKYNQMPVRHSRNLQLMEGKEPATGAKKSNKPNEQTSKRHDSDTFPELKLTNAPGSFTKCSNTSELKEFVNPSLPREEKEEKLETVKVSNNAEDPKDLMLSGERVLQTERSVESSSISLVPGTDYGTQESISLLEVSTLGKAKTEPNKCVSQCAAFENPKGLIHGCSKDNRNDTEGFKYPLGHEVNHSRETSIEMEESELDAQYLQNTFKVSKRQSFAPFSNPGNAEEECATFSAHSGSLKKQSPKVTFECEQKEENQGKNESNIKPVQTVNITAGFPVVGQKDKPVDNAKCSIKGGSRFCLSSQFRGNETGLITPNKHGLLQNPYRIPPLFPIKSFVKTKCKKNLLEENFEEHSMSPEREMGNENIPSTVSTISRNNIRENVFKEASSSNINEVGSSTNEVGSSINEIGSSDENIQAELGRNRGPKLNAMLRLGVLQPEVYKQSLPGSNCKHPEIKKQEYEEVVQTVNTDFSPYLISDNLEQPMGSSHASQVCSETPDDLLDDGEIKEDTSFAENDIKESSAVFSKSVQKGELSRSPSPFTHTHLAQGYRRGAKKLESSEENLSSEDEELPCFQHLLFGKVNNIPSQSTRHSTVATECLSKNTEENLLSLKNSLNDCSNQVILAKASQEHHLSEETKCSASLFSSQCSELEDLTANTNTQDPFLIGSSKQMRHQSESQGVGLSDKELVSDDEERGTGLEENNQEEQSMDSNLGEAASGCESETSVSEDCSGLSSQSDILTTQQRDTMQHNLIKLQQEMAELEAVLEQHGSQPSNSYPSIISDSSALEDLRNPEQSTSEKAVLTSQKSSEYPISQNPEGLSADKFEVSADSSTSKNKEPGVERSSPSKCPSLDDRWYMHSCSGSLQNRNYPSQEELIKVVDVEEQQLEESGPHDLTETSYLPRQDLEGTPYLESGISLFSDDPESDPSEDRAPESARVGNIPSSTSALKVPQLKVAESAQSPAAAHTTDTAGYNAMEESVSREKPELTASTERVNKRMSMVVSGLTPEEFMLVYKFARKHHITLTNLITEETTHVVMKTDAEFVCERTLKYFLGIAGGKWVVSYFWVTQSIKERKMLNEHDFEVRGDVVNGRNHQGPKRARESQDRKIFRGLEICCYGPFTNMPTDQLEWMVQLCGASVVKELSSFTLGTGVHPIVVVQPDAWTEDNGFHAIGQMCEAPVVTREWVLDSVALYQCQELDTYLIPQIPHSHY
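Fluorescence polarization: His-tagged BRCT (~35 kDa BRCA1 C-terminus, 250 nM) bound to 100 nM fluorescein-labeled phosphorylated 10-aa BACH1 peptide, pH 7.3 phosphate buffer with DTT and Tween 20. Compounds incubated 12 min at room temperature; inhibition read as lowered polarization.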
ERK AVP block = blocks ERK signaling stimulated by vasopressin; HEK293-V1b, vasopressin-stimulated pERK AlphaScreen; Potency, µM (top dose mostly 57.5 µM), for inactives: at the top dose activity, negative = inhibition, usual class: inhibitors; 72,000 compounds, 0.99% hits; AID 995; note: potency is the fitted concentration of half-maximal effect; % is set by controls: 0 for no effect and ±100 for the full control effect; nearly all actives have a fitted effect of over 55% in size
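Phosphorylated ERK1/2 detected via AlphaScreen bead proximity in lysates of V1b-expressing HEK293 cells given 25 nM vasopressin for 5 min after 30 min compound exposure (37 °C). AC50 from Hill equation; basal DMSO 0%, vasopressin 100%.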
BRCT inh red = disrupts BRCA1 BRCT binding to phosphoprotein, red fluorophore readout; P38398; AID 892; 75,000 compounds, 0.03% hits; BRCT-phosphopeptide binding, red fluorescence polarization; Potency, µM (series often up to 76.9 µM), for the others: at the top dose activity change, negative = inhibition, usual class: inhibitors; note: % is set by controls: 0 for no effect and ±100 for the full control effect
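Fluorescence polarization: 100 nM His-tagged BRCA1 BRCT with 100 nM TAMRA-labelled phospho-BACH1 decapeptide, phosphate buffer pH 7.3 with 150 mM NaCl, DTT, 0.01% Tween 20; 12 min RT. Binding inhibition seen as FP decrease.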
Tau filament bind = binders of human tau filaments; P10636; recombinant tau filaments, thioflavin S fluorescence, 15 h; filaments grown with octadecylsulfate alongside compound; 71,000 compounds, 2% hits; AID 596; Potency, µM (titrated, usually from 57.1 µM), inactives show at the highest dose activity change, negative = inhibition;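 note: potency is the fitted concentration of half-maximal effect; % is set by controls: 0 for no effect and ±100 for the full control effect; actives lower thioflavin S fluorescence by blocking filaments or displacing dye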
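Recombinant tau protein (human, 1 uM final) plus 30 uM ODS in HEPES pH 7.4 with NaCl, DTT and thioflavine S. Compound present from the start; fluorescence at 510 nm after 15 h, 37 C.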
HEK293 cAMP cs = parental HEK293 cAMP activation (counter-screen); Potency, µM (doses to about 57.1 µM), without a hit: at the top dose activation, hits mostly activators; 73,000 compounds, 2.5% hits; AID 938; parental HEK293 CNG cAMP sensor, membrane potential fluorescence; note: potency is the fitted concentration of half-maximal effect; % of control where 0% means no effect; nearly all actives have a fitted effect of over 55% in size
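Counterscreen for endogenous-receptor signalling: CNG-channel HEK 293 cells report cAMP rise by membrane depolarization. After 60 min dye equilibration with 100 uM RO 20-1724, compounds incubated 30 min before bottom-read fluorescence at 590 nm.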
USP2a inhib = USP2a (human) protease inhibition; Potency, µM (highest dose often 38.3 µM), inactives show top-dose activity change, negative = inhibition, actives largely listed as inhibitors; USP2a enzymatic assay, qHTS inhibition; 60,000 compounds, 0.1% hits;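 note: potency is the fitted concentration of half-maximal effect; nearly all actives have a fitted effect of over 60% in size; plate controls were DMSO for no effect and NEM full inhibition control for full effect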
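Coupled readout: USP2-cleaved Ub-PLA2 (20nM final) turns over NBD C6-HPC (20uM final), Ex 460nm/Em 535nm after 2.5 h, time-zero read flagging artifacts. Enzyme (20nM final, pH 8.0 Tris) given 30 min RT with compound first; NEM defines full inhibition.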
CRE Fsk mod = CRE-bla signaling modulation under forskolin stimulation. CHO CRE-bla reporter (cAMP response element driving beta-lactamase), forskolin EC10, beta-lactamase ratio. Potency, µM (top dose mostly 38.2 µM), without a hit: at the top dose activity change, negative = inhibition, most hits filed as activators. 71,000 compounds, 2.5% hits. AID 662; active = well fitted activation curve with a large enough effect in the signal ratio, with a control signal flat, not every such curve was filed as active; inconclusive = small, poorly fitted or top-dose-only effect, or effect the other way, or a change in a side signal; the % refers to the signal ratio; note: potency is the fitted concentration of half-maximal effect; % of control where 0% means no effect
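Using CellSensor CRE-bla CHO cells in Opti-MEM with 0.5% dialyzed FBS, compounds were titrated with EC10 NKH 477 for 3 h at 37 °C. CCF4 ratio (460/530 nm) gave %Activity; AC50 derived.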
Numbers without * were called inactive; i = inactive; ? = inconclusive; nt = no result given; [ ] = remark or other dose. Unless noted, calls come from the whole dose curve; as a rule, active = well fitted curve in the direction sought with a large enough effect; inconclusive = small, poorly fitted or top-dose-only effect, or another doubt; inactive = no such curve, though single readings can be large; an effect the other way counts as inactive or inconclusive. Some of the compounds tested; the hit share may differ from the screen's.

Results follow in this order: HEK293 cAMP cs	BRCT inh green	CRE Fsk mod	BRCT inh red	Tau filament bind	ERK AVP block	Luciferase inh	USP2a inhib
- CN(C)c1ncc2nc(-c3ccccc3)c(=O)n(Cc3ccc(F)cc3)c2n1
    5µM*	-2.8%	?	-0.7%	72%	16%	-1%[11.4 µM]	237%[activator]
- COc1ccc2cc3cc(C(=O)Nc4ccc5c(c4)OCCO5)oc3nc2c1
    27%	-4.8%	?	-0.9%	18%	1%	0%	-1%
- CCNc1ncc2nc(-c3ccccc3)c(=O)n(CCc3ccccc3)c2n1
    21%	7.0%	?	-1.3%	12%	?	1%[11.4 µM]	92%[activator]
- COc1ccc(-c2nc3cnc(N4CCNCC4)nc3n(C)c2=O)cc1
    18%	-3.0%	?	-2.0%	104%	16%	-11%[11.4 µM]	42%[activator]
- CC(C)Cn1c(-c2cccs2)nc2nc3ccccc3nc21
    12%	-2.9%	13µM*	0.0%	?	6%	-4%	6%
- Cc1c(C(=O)NC2=NCCS2)oc2ccccc12
    11%	-0.9%	16%	-3.2%	-4%	-16%	1%	6%
- CSc1nc(N)nc(SCC(=O)c2ccc(C)cc2)c1C#N
    10%	-0.8%	?	0.3%	103%	2%	4%	6%
- C=CCn1c(N)c(C(=O)OCCC)c2nc3ccccc3nc21
    8%	-4.4%	10µM*	0.9%	-8%	-8%	2%	6%
- COC(=O)C1=CN(C2CC2)C=C(C(=O)OC)C1c1ccccc1OC
    13%	-0.9%	?	0.4%	26%	9%	1%	4%
- CCOC(=O)C1=C(C)NC2=C(C(=O)CCC2)C1c1cccnc1 (configuration not stated)
    4%	-3.0%	?	-1.9%	-4%	-8%	-2%	-7%
- COCc1cc(=O)n2c([nH]c3ccccc32)c1C#N
    3%	-0.7%	?	-0.5%	12%	4%	-3%	3%
- CSc1nc(N)nc(SCC(=O)c2ccccc2)c1C#N
    -1%	-2.2%	3.2µM*	0.4%	21%	-26%	2%	-4%
- CCNc1ncc2nc(-c3cc(F)cc(F)c3)c(=O)n(-c3ccc(OC)cc3)c2n1
    1%	22%	?	-2.4%	94%	19%	0%[11.4 µM]	36%[activator]
- CN(C)c1ncc2nc(-c3cccs3)c(=O)n(C[C@H]3CCCO3)c2n1
    1%	-1.0%	1.6µM*	-0.3%	i	7%	0%[11.4 µM]	72%[activator]
- Nc1c(C(=O)NCCN2CCOCC2)c2nc3ccccc3nc2n1CCc1ccccc1F
    11%	-1.5%	?	-3.5%	67%	-8%	0%	45%[activator]
- Cc1cccc(S(=O)(=O)C(C#N)c2nc3ccccc3nc2N2CCCC2)c1 (configuration not stated)
    1%	8.1%	?	-0.5%	118%	-18%	1%	21%
- CCCCC(=O)Nc1nn(CCC)c2nc3ccccc3cc12
    13%	-4.5%	?	0.6%	116%	55%[activator]	2%	2%
- O=C1N2CCCc3cccc(c32)C12Nc1ccccc1S2 (configuration not stated)
    4%	-3.7%	2%	-0.2%	-7%	9%	2%	-5%
- COc1ccc(S(=O)(=O)C(C#N)c2nc3ccccc3nc2N2CCCC(C)C2)cc1 (configuration not stated)
    -3%	-0.6%	?	-2.9%	-20%	?	0%	24%
- COc1ccc2[nH]c(=O)c(CN(Cc3nnnn3Cc3ccccc3)CC3CCCO3)cc2c1 (configuration not stated)
    ?	-4.1%	1%	0.6%	46%	-6%	-1%	12%
- O=C(NCc1ccco1)c1cnn2c(C(F)(F)F)cc(-c3cccs3)nc12
    21%	-3.9%	10µM*	-3.8%	97%	6%	3%	25%
- COC(=O)c1nc(-c2ccc(C)cc2)oc1N(C)C
    1%	-2.1%	7%	0.4%	6%	4%	-22%	-1%
- CCNc1ncc2nc(-c3cc(F)cc(F)c3)c(=O)n(CCOC)c2n1
    10%	7.2%	?	0.6%	38%	5%	2%[11.4 µM]	80%[activator]
- Cc1c(O)ccc2c3c(c(=O)oc12)CCCC3
    0%	3.0%	?	1.7%	35%	16µM*	-1%	-11%
- COCCn1c(=O)c(-c2ccccc2)nc2cnc(Nc3ccccc3)nc21
    25%	-1.7%	?	0.0%	102%	-8%	1%[11.4 µM]	55%[activator]
- COc1ccc(Br)cc1C1NC(=O)c2c(sc3c2CCN(C)C3)N1 (configuration not stated)
    -3%	2.4%	13µM*	-2.7%	i	-3%	1%	1%
- COc1ccc(-n2c(=O)cnc3cnc(N(C)C)nc32)cc1
    15%	-0.7%	10µM*	0.9%	-2%	-30%	2%[11.4 µM]	6%
- O=c1c(-c2cccs2)nc2cncnc2n1-c1ccccc1
    25µM*	4.2%	?	0.9%	236%	-29%	-4%[11.4 µM]	194%[activator]
- Cn1c(C(=O)NCCC2=CCCCC2)cc2c(=O)n3ccccc3nc21
    8%	-2.2%	1.6µM*	0.1%	-28%	7%	0%	5%
- COc1cccc(C2C=C(c3ccc(Br)s3)Nc3ncnn32)c1OC (configuration not stated)
    14%	3.7%	?	0.2%	nt	-4%	-1%	40%[activator]
- CCOC(=O)N1CCN(C(=O)c2ccc3nc4ccc(Cl)cc4c(=O)n3c2)CC1
    6%	-2.3%	0.05µM*	0.3%	4%	3%	3%	4%
- CC(C(=O)O)N1C(=O)c2cccc3cccc1c23 (configuration not stated)
    12%	-0.8%	?	-0.8%	8%	-13%	3%	4%
- CC1(C)CC(=O)C2=C(C1)N(CCN1CCOCC1)C1=C(C(=O)CC(C)(C)C1)C2c1cccc(Cl)c1
    17%	1.2%	?	-0.3%	77%	9%	-1%	25%
- CCOc1cc(C2C(C(=O)OC)=CN(C3CCCC3)C=C2C(=O)OC)cc(Br)c1O
    ?	-4.1%	?	-1.1%	74%	5%	-1%	2%
- COCCCNC(=O)c1c(N)n(-c2ccc3c(c2)OCO3)c2nc3ccccc3nc12
    17%	0.6%	10µM*	1.6%	-11%	-13%	1%	37%[activator]
- COc1ccc2cc3c(N)c(C(=O)NCc4ccco4)sc3nc2c1
    -22%	8.0%	13µM*	-2.0%	1%	?	-17%	23%
- CCN(CC)c1ccc2oc(=O)c(C)nc2c1
    4%	64%[activator]	-23%	-0.3%	-1%	-14%	-9%	5%
- N=c1c(C(=O)NCC2CCCO2)cc2c(=O)n3ccccc3nc2n1Cc1cccnc1 (configuration not stated)
    -6%	0.1%	13µM*	0.2%	109%	-27%	-2%	2%
- Cc1onc(-c2c(F)cccc2Cl)c1C(=O)Nc1cccc2nsnc12
    ?	0.5%	?	0.8%	-10%	5%	0%	4%
- COc1cc(NC(=O)c2ccco2)c(OC)cc1NC(=O)c1cc(OC)c(OC)c(OC)c1
    2%	-0.8%	4µM*	-2.6%	-16%	9%	-1%	19%
- Nc1c(C(=O)OCC2CCCO2)c2nc3ccccc3nc2n1C1CCCC1 (configuration not stated)
    25%	-1.1%	2.5µM*	0.0%	-15%	?	-5%	21%
- N#CC(C(=O)NCc1ccccc1)c1nc2ccccc2nc1N1CCCC1 (configuration not stated)
    ?	-106%	?	1.1%	61%	0%	2%	8%
- CC(C)OC(=O)c1cc(=O)[nH]c2ccccc12
    18%	-0.5%	17%	-0.7%	-11%	23%	1%	-3%
- CCN1C(=O)c2cccc3c(S(=O)(=O)NCc4ccco4)ccc1c23
    -3%	-3.8%	11%	-1.0%	25%	-11%	-1%	-1%
- O=c1c(-c2cc(F)cc(F)c2)nc2cnc(N3CCNCC3)nc2n1C1CC1
    3%	-0.1%	?	1.2%	177%	-9%	1%[11.4 µM]	128%[activator]
- COc1ccc(-c2oc3ccc(C)cc3c(=O)c2O)cc1OC
    1%	-2.5%	1%	-1.4%	28%	10%	-2%[11.4 µM]	nt
- CN1C=CC2=C(C#N)C(N)C(C#N)(C#N)C(c3ccccc3)C2C1 (configuration not stated)
    -2%	-17%	2%	-3.2%	i	?	-1%	-4%
- CCOc1ccc2nc3c(cc2c1)CN(CCCO)C(=NCCOC)S3
    5%	-1.1%	?	-1.4%	-15%	2%	-38%	9%
- COc1cccc(C2C=C(c3ccc(OC)cc3OC)Nc3nnnn32)c1 (configuration not stated)
    ?	-2.8%	?	-0.9%	140%	-26%	-3%	26%
- COc1cccc(N2C(=O)C3CC=C(Cl)CC3C2=O)c1 (configuration not stated)
    1%	-0.2%	-11%	-1.8%	109%	-11%	3%	-1%
- Cc1ccc(S(=O)(=O)Nc2ccc(Br)cc2/C=N/n2cnnc2)cc1
    -33%[inhibitor]	-0.7%	?	0.8%	-4%	-11%	-4%	-3%
- COc1ncc2nc(-c3cc(F)cc(F)c3)c(=O)n(CCc3ccccc3)c2n1
    12%	2.1%	10µM*	-0.7%	?	-7%	0%[11.4 µM]	24%
- CCOC(=O)C1=C(C)NC2=C(C(=O)CC(C)(C)C2)C1c1cccc(C)n1 (configuration not stated)
    10%	-0.2%	?	0.3%	9%	15%	-1%	4%

Reformatted field by field: 3 of the compounds above
O=c1c(-c2cccs2)nc2cncnc2n1-c1ccccc1
  HEK293 cAMP cs = 25µM*
  BRCT inh green = 4.2%
  CRE Fsk mod = ?
  BRCT inh red = 0.9%
  Tau filament bind = 236%
  ERK AVP block = -29%
  Luciferase inh = -4%[11.4 µM]
  USP2a inhib = 194%[activator]
CCOc1ccc2nc3c(cc2c1)CN(CCCO)C(=NCCOC)S3
  HEK293 cAMP cs = 5%
  BRCT inh green = -1.1%
  CRE Fsk mod = ?
  BRCT inh red = -1.4%
  Tau filament bind = -15%
  ERK AVP block = 2%
  Luciferase inh = -38%
  USP2a inhib = 9%
COc1ncc2nc(-c3cc(F)cc(F)c3)c(=O)n(CCc3ccccc3)c2n1
  HEK293 cAMP cs = 12%
  BRCT inh green = 2.1%
  CRE Fsk mod = 10µM*
  BRCT inh red = -0.7%
  Tau filament bind = ?
  ERK AVP block = -7%
  Luciferase inh = 0%[11.4 µM]
  USP2a inhib = 24%
